HNF4A DNA FP = change in binding of human HNF4 alpha to DNA; P41235; HNF4a-FITC DNA binding, fluorescence polarization, 1 h; activity change, % at 10 µM; 360,000 tested, 0.3% active; AID 1224865; in the data active = activity change above about 30%, passing the limit was not always enough;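 also: controls were the assay level and a saturating level of protein; the project sought stronger binding though the title names inhibitors; some compounds called inactive have numbers as strong as hits; positive values seem to mean higher polarization but the record does not say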
Target sequence (P41235 whole entry, looked up): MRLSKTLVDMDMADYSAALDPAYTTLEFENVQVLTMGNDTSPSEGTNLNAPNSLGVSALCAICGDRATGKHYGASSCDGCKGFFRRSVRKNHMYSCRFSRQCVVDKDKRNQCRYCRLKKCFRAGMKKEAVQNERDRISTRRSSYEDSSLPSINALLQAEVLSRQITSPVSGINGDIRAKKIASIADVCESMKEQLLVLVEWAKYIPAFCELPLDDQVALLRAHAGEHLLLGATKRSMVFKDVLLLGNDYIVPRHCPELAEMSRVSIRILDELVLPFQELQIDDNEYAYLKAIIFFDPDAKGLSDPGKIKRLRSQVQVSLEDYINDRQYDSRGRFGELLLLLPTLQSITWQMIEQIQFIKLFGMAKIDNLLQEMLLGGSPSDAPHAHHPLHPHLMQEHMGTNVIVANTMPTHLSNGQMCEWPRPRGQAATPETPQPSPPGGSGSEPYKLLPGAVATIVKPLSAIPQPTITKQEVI
FGF22 binding = FGF22 (human) thermal shift binding. calls only at 9.99 µM. 340,000 tested, 1.5% active. recombinant FGF22 thermal shift, SYPRO orange fluorescence; percent of sucrose octasulfate shift, DMSO zero;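 active = melting point raised past a set limit in the mean and every replicate; three in four hits are not shown here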
Target sequence (Q9HCT0 whole entry, looked up): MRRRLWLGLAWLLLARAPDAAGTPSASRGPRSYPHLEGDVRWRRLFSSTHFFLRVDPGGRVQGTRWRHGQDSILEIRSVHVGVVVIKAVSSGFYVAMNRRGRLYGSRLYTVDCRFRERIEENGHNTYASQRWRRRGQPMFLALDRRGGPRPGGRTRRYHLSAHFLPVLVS
* marks the source's active call; other numbers are inactive results; i = inactive; / = no result given. This is a subset (hit frequency here may not be typical).

SMILES	HNF4A DNA FP	FGF22 binding
O=C(CCN1N=C(c2ccccc2)CCC1=O)NC1CCCCC1	2.2	i
COC(=O)c1c(NC(=O)c2ccc(C(=O)c3ccccc3)cc2)sc2c1CC(C)(C)NC2(C)C	0.4	i
O=C([C@H]1O[C@@H](n2ccc(=O)[nH]c2=O)[C@H](O)[C@@H]1O)N1CCN(c2ccc(Cl)cn2)CC1	2.4	i
O=C(NCc1ccncc1)[C@@H]1CCCN1C(=O)[C@H]1CCCN1C(=O)c1cccc(Cl)c1	1.6	i
O=C(/C=C/[C@H]1O[C@@H](n2ccc(=O)[nH]c2=O)[C@H](O)[C@@H]1O)NCc1ccccc1	2.1	i
COc1cccc(C(C(=O)NC2CCCC2)N2CCN(c3cc(C)nc4ccccc34)CC2)c1OC (stereo unspecified)	0.7	i
O=C1NC[C@@H](CCCCN2C[C@H](Cc3ccc(O)cc3)N(CC3CCCCC3)C(=O)C2=O)N(Cc2ccccc2)C1=O	2.4	i
CCCCNC(=O)C1c2ccccc2OCC(=O)N1Cc1ccco1 (stereo unspecified)	2.0	i
COc1ccc(NC(=O)C[C@H]2C(=O)N(CCc3ccccc3)C[C@@H]2Cc2ccccc2)cc1	-0.4	i
CCOC(=O)C[C@@H]1OC2CCCCC2N1S(=O)(=O)c1ccc(C)cc1 (stereo partly specified)	2.3	i
CCCCCCn1cc(CN2CC(N(C)CC)CS2(=O)=O)nn1 (stereo unspecified)	-0.5	i
CCc1nc2ccc(C(=O)N3CCN(C(=O)c4ccco4)CC3)cn2c1N(CC)Cc1cccc(Br)c1	4.2	i
O=C(C[C@@H]1CC[C@@H]2[C@H](COC[C@H](O)CN2Cc2cccc(C(F)(F)F)c2)O1)NCc1ccc(Cl)cc1	0.1	i
O=C(CCN1C(=O)c2ccccc2C1=O)c1ccccc1	-0.9	i
O=C(Nc1cccc(Cc2ccccc2)c1)Nc1ccc2nc([C@@H]3O[C@H](CO)[C@@H](O)[C@H](O)[C@H]3O)[nH]c2c1	1.3	i
Cc1cc2nc(-c3ccccc3)c(CC(C)(C)C)n2c(C)c1Br	2.3	/
CC(=O)Nc1cccc(-c2ccnc3c2CC(C)(C(=O)Nc2cccc(C(F)(F)F)c2)O3)c1 (stereo unspecified)	7.4	i
C[C@@H]1CN([C@H](C)CO)C(=O)CCCn2cc(nn2)CO[C@H]1CN(C)S(=O)(=O)c1ccc(-c2ccccc2)cc1	-5.1	i
COC(=O)[C@@]12C[C@@H](CC(=O)N3CCN(C(=O)c4ccco4)CC3)C(=O)N(Cc3ccc4c(c3)OCO4)C1=CCC(C)(C)C2	-1.3	i
CCOC1=C2CN(S(=O)(=O)c3ccc(C)cc3)[C@H](c3ccccc3)C[C@H]2n2c(=O)n(-c3ccccc3)c(=O)n2C1	2.8	i
COC(=O)/C=C1\OC(c2ccccc2)c2ccccc21 (stereo unspecified)	2.1	i
COC(=O)[C@]12CCCCC=C1N(Cc1ccco1)C(=O)[C@H](CC(=O)NCCC(C)C)C2	-5.6	i
COc1ccc(-c2cc(NC=O)c3ncc(-c4cc(OC)c(OC)c(OC)c4)n3c2)c(OC)c1	3.6	i
Cc1ccc(CN2C(=O)C(Cc3ccccc3)Nc3ncnc(N4CCOCC4)c32)cc1 (stereo unspecified)	-0.7	i
Cc1ccccc1-c1cnc(C(O)c2c(C)cccc2C)[nH]1 (stereo unspecified)	0.4	i
Cn1c(Nc2ccc(Cl)cc2F)nc2cc(-c3ccccc3)sc2c1=O	1.2	i
Cn1nc(NC(=O)C(F)(F)F)c2ncc(-c3ccccc3)nc21	3.0	i
Cc1cc(C(O)c2ncc(-c3ccccc3C)[nH]2)ccc1F (stereo unspecified)	-1.6	i
COc1ccc(NC(=O)C2(C)CCN2Cc2cccc(OC)c2F)cc1OC (stereo unspecified)	1.3	i
O=c1c(-c2cc3ccccc3[nH]2)nc2ccccc2n1C(CCc1ccccc1)c1nc2ccccc2[nH]1 (stereo unspecified)	3.3	i
COc1ccc(CN2CCN(Cc3c[nH]c4ccccc34)CC2)c(OC)c1	-1.2	i
Cc1ccc(Cc2c(-c3ccc(Cl)cc3)nc3c(Cl)cc(C(F)(F)F)cn23)cc1	1.3	i
COc1cccc(C(C(=O)NC2CCCC2)N2CCN(c3ncccc3C#N)CC2)c1OC (stereo unspecified)	-4.6	i
COc1cccc(NC(=O)c2cnc(NS(=O)(=O)c3ccccc3)nc2)c1	-0.8	i
CC(=O)c1ccc(NC(=O)CN2CCC(NC(=O)c3ccccc3C)CC2)cc1	1.5	i
COC(=O)C[C@H]1CC[C@@H](NS(=O)(=O)c2ccccc2)[C@@H](CO)O1	0.9	/
COC(=O)c1ccc2nc(-c3cccc(Br)c3)c(Cc3ccccc3C(F)(F)F)n2c1	7.8	i
COc1ccccc1-c1cnc(C(O)c2ccc(Cl)cc2C)[nH]1 (stereo unspecified)	-1.7	i
COCCCN1C(=O)C(CC(=O)NCCN2CCOCC2)CC(C(=O)N2CCOCC2)=C1C (stereo unspecified)	-2.4	i
C[C@H](O)[C@@H]1C(=O)N2CCc3c([nH]c4ccccc34)[C@@H]2C[C@@H]1N(C)S(=O)(=O)c1ccccc1	1.4	i
CCOc1ccc(-c2cc(C(=O)NCCOC)[nH]n2)c(C)c1	1.9	i
NC1=CC(=O)C(=O)c2cccnc21	-12.9	i
COc1cc(CCN(C(=O)c2cccc(S(C)(=O)=O)c2)C(CCc2ccccc2)c2nc3ccccc3[nH]2)cc(OC)c1 (stereo unspecified)	-0.1	i
COc1ccc(N2CCN(C(=O)C(=O)c3cccc([N+](=O)[O-])c3)CC2)cc1	-1.9	i
CCOC1=C2[C@@H](CN(S(=O)(=O)c3ccc(C)cc3)[C@H]2c2cccs2)[C@H]2C(=O)N(c3ccccc3)C(=O)[C@H]2C1	6.9	i
O=c1[nH]c2cc([N+](=O)[O-])ccc2c2cc(Br)ccc12	-2.6	i
CNC(C)C(=O)NC(C(=O)NC(C)C(=O)Nc1cccc2ccccc12)C(C)C (stereo unspecified)	-1.1	i
O=C(NCCC(F)(F)F)c1cccc2c(-c3ccc(F)c(F)c3)coc12	-3.2	i
OCc1ccccc1Cn1ccnc1	3.1	i
CCOC(=O)[C@]12CCC=C1N(CCC1=CCCCC1)C(=O)[C@H](CC(=O)N1CCSCC1)C2	0.4	i
O=S1(=O)CC(N2CCC(Cc3ccccc3)CC2)CN1Cc1ccc(F)cc1 (stereo unspecified)	1.6	i
COc1ccc(C(C)(O)c2nc(-c3cccc(C#N)c3)cs2)cc1 (stereo unspecified)	5.2	i
CCCCn1nnnc1C(c1cccs1)N1CCN(C/C=C/c2ccccc2)CC1 (stereo unspecified)	1.5	i
CC(C)(C)c1ccc(NC(=O)c2cc(C3CCCN(C(=O)CCc4ccccc4)C3)on2)cc1 (stereo unspecified)	-0.1	i
CN(C)c1ccc(C=C2SC(=S)N(Cc3ccco3)C2=O)cc1	128.1	i
CCc1nc2ccc(C(=O)N(CC)CCN(C)C)cn2c1N(C)CCCc1ccccc1	-2.0	i
COc1ccccc1CNc1nc(NC(C)C)nc2cc(-c3ccccc3)sc12	-0.3	i
O=C(COC(=O)C1=COCCO1)NCc1ccc(Cl)cc1Cl	1.6	i
CC(O)(c1cccnc1)c1nc(-c2cccc(F)c2)cs1 (stereo unspecified)	2.9	i
COc1ccc(CC(N)c2csc(Nc3nc(C)cnc3C)n2)cc1 (stereo unspecified)	4.9	i

Among those listed so far, these have two or more sulfur atoms:
SMILES	HNF4A DNA FP	FGF22 binding
CCOC1=C2[C@@H](CN(S(=O)(=O)c3ccc(C)cc3)[C@H]2c2cccs2)[C@H]2C(=O)N(c3ccccc3)C(=O)[C@H]2C1	6.9	i
CN(C)c1ccc(C=C2SC(=S)N(Cc3ccco3)C2=O)cc1	128.1	i

Ordered by SMILES length (lowest first): some entries from above
SMILES	HNF4A DNA FP	FGF22 binding
CC(O)(c1cccnc1)c1nc(-c2cccc(F)c2)cs1 (stereo unspecified)	2.9	i
COc1ccc(C(C)(O)c2nc(-c3cccc(C#N)c3)cs2)cc1 (stereo unspecified)	5.2	i
COc1ccccc1CNc1nc(NC(C)C)nc2cc(-c3ccccc3)sc12	-0.3	i

6 of the compounds above, with two lines to a compound.
Values in the order: HNF4A DNA FP | FGF22 binding
- COc1ccc(C(C)(O)c2nc(-c3cccc(C#N)c3)cs2)cc1 (stereo unspecified)
→ 5.2 | i
- CCOC(=O)[C@]12CCC=C1N(CCC1=CCCCC1)C(=O)[C@H](CC(=O)N1CCSCC1)C2
→ 0.4 | i
- O=C(COC(=O)C1=COCCO1)NCc1ccc(Cl)cc1Cl
→ 1.6 | i
- COc1ccc(CC(N)c2csc(Nc3nc(C)cnc3C)n2)cc1 (stereo unspecified)
→ 4.9 | i
- CNC(C)C(=O)NC(C(=O)NC(C)C(=O)Nc1cccc2ccccc12)C(C)C (stereo unspecified)
→ -1.1 | i
- O=S1(=O)CC(N2CCC(Cc3ccccc3)CC2)CN1Cc1ccc(F)cc1 (stereo unspecified)
→ 1.6 | i

(further entries)
SMILES	HNF4A DNA FP	FGF22 binding
COc1ccc(NC(=O)COC(=O)C2CCCN2C(=O)OC(C)(C)C)cc1Cl (stereo unspecified)	-2.9	i
COc1ccc(N2CCN(C(=O)/C=C/[C@H]3O[C@@H](n4ccc(=O)[nH]c4=O)[C@H](O)[C@@H]3O)CC2)cc1	1.1	i
Cc1cccc(C)c1NC(=O)C1c2ccccc2OCC(=O)N1CCc1ccccc1 (stereo unspecified)	0.4	i
C[C@H](CO)N1C[C@H](C)[C@H](CN(C)S(=O)(=O)c2cn(C)cn2)OCc2cnnn2CCCC1=O	0.7	i
Cc1ccc(Cn2cc(CN3CC(N4CCCC4)CS3(=O)=O)nn2)cc1 (stereo unspecified)	-2.9	i
CC(C)(C)c1ccc(S(=O)(=O)NC(=O)C2(C)CCN2C(=O)C2CCCCC2)cc1 (stereo unspecified)	2.8	i
COc1ccc(Nc2c(-c3cccc(OC)c3)nc3nc(C)cc(C)n23)cc1	-4.3	i
Cc1cc(C)c2cc(C#N)c(NCCNC(=O)c3ccccn3)nc2c1	3.7	i
Cc1cc(S(=O)(=O)Nc2ccc(C(=O)NC3CC3)cc2)ccc1F	-2.0	i
Cc1cc(=O)[nH]c(NNC(=O)c2ccc(Cl)cc2)n1	0.8	i
c1ccc(C2=NC(c3ccccc3)CC2)cc1 (stereo unspecified)	-1.1	i
CC(C)N(Cc1ccccc1)S(=O)(=O)c1ccc(-n2cccn2)cc1	-3.2	i
CC(C)c1cccc(-c2csc(C(O)c3ccc(F)cc3)n2)c1 (stereo unspecified)	-1.9	i
CC(=O)Nc1cccc(-c2ccnc3c2CC(C)(C(=O)NCc2cccc(Cl)c2)O3)c1 (stereo unspecified)	1.2	i
COc1cc(Cl)ccc1OC1(C)CCN(Cc2cccc(OC)c2OC)C1 (stereo unspecified)	3.3	i

A section of the results above, for reference:
SMILES	HNF4A DNA FP	FGF22 binding
COc1ccc(N2CCN(C(=O)/C=C/[C@H]3O[C@@H](n4ccc(=O)[nH]c4=O)[C@H](O)[C@@H]3O)CC2)cc1	1.1	i
Cc1cccc(C)c1NC(=O)C1c2ccccc2OCC(=O)N1CCc1ccccc1 (stereo unspecified)	0.4	i

(cont.)
SMILES	HNF4A DNA FP	FGF22 binding
CCc1nc2c(OCC(=O)c3ccc(F)cc3)cccn2c1N(C)C(=O)c1cccs1	2.1	i
CNc1ccc2ncc(-c3cccc(C(=O)N(C)C)c3)n2n1	1.1	i
C[C@H](CO)N1C[C@H](C)[C@@H](CN(C)Cc2ccc3c(c2)OCCN3C)OCc2cnnn2CCCC1=O	6.5	i
O=C1NC[C@H](CCCCN2C[C@H](Cc3ccccc3)N(CCc3ccc(O)cc3)C(=O)C2=O)N(CCc2ccccc2)C1=O	0.8	i
CC1CC(C)CN(C(C(=O)NC2CCCCC2)c2ccnc3ccccc23)C1 (stereo unspecified)	1.0	i
Cc1c(C(=O)NCc2ccccc2C(F)(F)F)sc(=O)n1Cc1ccc2c(c1)OCO2	-0.9	i
CCOC1=C2[C@H](c3cccs3)N(S(=O)(=O)c3ccc(C)cc3)C[C@H]2n2c(=O)n(-c3ccccc3)c(=O)n2C1	-1.0	i
CC(O)(c1ccc(F)c(F)c1)c1nc(-c2ccccc2)cs1 (stereo unspecified)	2.9	i
COc1ccc(-c2cc(C(=O)N3CCCCCC3)c3ccccc3n2)cc1OC	4.5	i
Cc1cccnc1C(NC(=O)C1CCN(CCCc2ccccc2)CC1)c1ccc(Cl)cc1 (stereo unspecified)	-0.6	i
CC1(C(=O)Nc2cccc(Oc3ccccc3)c2)CCN1Cc1ccccc1OC(F)F (stereo unspecified)	3.0	i
CC1(C(=O)NS(=O)(=O)c2ccccc2)CCN1C(=O)CCc1ccccc1 (stereo unspecified)	0.0	i
O=C(NCc1ccccc1)C1C(c2ccc3c(c2)OCO3)=Nc2ccccc2N1C(=O)c1cccc2ccccc12 (stereo unspecified)	3.0	i
CN(Cc1ccc2c(c1)CCCN2C)C(=O)[C@H]1O[C@@H](n2cnc3c(N)ncnc32)[C@H](O)[C@@H]1O	-0.7	i
CC(=O)N1CCC(C(=O)N2c3ccccc3N=C(c3ccc(C(F)(F)F)cc3)C2C(=O)NC(C)(C)C)CC1 (stereo unspecified)	0.4	i
OC(c1ccc(Cl)c(F)c1)c1ncc(-c2ccc(F)cc2)[nH]1 (stereo unspecified)	-1.4	i
CC1(C(=O)NNC(=O)c2cccc([N+](=O)[O-])c2)CC1Br (stereo unspecified)	0.8	i
CC(C)(C)OC(=O)N(CC1CCNCC1)C(=O)c1[nH]c(C(F)(F)F)nc1-c1ccccc1	3.8	i
CC1(C)CC(=O)C=C(C(=O)N2CCCC(C(=O)c3cc(F)ccc3F)C2)O1 (stereo unspecified)	-2.5	i
CC(S(=O)(=O)c1ccccc1)S(=O)(=O)c1ccccc1	5.1	i
COc1ccccc1COc1cccn2c(N(C)C(=O)CCC3CCCC3)c(C)nc12	5.0	i
O=C(O)COc1ccc(NC(=O)c2ccc3c(c2)C(=O)N(CC2CCCO2)C3=O)cc1 (stereo unspecified)	-0.8	i
Cc1ccc(NC(=O)CN(C2=NC3CS(=O)(=O)CC3S2)c2ccccc2)cc1 (stereo unspecified)	1.5	i

Screening data from PubChem BioAssay.
